Compound activity deposited in PubChem by SRMLSC.
H5N1 CPE – MDCK cell protection from H5N1 avian flu. cytopathic effect, luminescence, 72 h; stronger effect = higher value; no value below 0 was filed and about half of the inactive calls have no number; reference of the scale not given here. hit rate 0.07% among 96,000. AID 740, 2007. inhibition, % at 50 µM; in the data active = inhibition above about 25%
An asterisk follows results filed as active; i = inactive.

SMILES | H5N1 CPE
COC(=O)c1cc(NC(=O)C2C3C=CC(C3)C2C(=O)O)cc(C(=O)OC)c1 (stereo unspecified) | 0.2
COc1ccc(S(=O)(=O)N2CCN(C(=O)COc3ccc4c(C)cc(=O)oc4c3)CC2)cc1 | 2.1
O=C(COc1ccccc1)N1CCN(C(=O)c2cccc(F)c2)CC1 | 0.2
Cc1ccccc1NS(=O)(=O)c1ccc(C)c(C(N)=O)c1 | 0.5
COc1ccc(CCn2c(N3CCOCC3)nc3c2c(=O)[nH]c(=O)n3C)cc1 | 0.7
CC(C)CN(CC(C)C)S(=O)(=O)N1CCC(C(=O)NCc2ccc(F)cc2)CC1 | 0.5
C=CCn1c(O)c(C(CC)=NCCCO)c(=O)[nH]c1=O | i
COCc1cc(C)nc(SCC(=O)c2ccc(O)c(O)c2)c1C#N | i
Cc1c(C(=O)OC(C)C)[nH]c2c1C(=O)CCC2 | i
COc1ccccc1NC(=O)c1ccc(COc2ccccc2OC)o1 | i
COc1cc(NC(=O)C2CCCO2)c(C(=O)O)cc1OC (stereo unspecified) | i
O=C1CN(C(=O)COc2ccccc2)CCN1 | 0.4
O=C(NC1CCN(Cc2ccccc2)CC1)C1CCN(c2nnc(-n3cccc3)s2)CC1 | i
O=C(c1cc(-c2ccccc2O)on1)N1CCCC1 | 2.9
CC(NC(=O)Cn1nc(C(F)(F)F)c2c1CCC2)c1ccccc1 (stereo unspecified) | 0.5
Cc1onc(-c2ccccc2)c1C(=O)NCc1ccccn1 | i
Fc1cc(F)c(F)c(SCCc2ccncc2)c1F | i
Cn1c(=O)c2c(ncn2CC(=O)OCc2ccccc2)n(C)c1=O | 1.7
Cc1[nH]c2ccccc2c1C(O)CN1CCN(c2cccc(C(F)(F)F)c2)CC1 (stereo unspecified) | i
CCn1nnc(-c2ccccc2NC(=O)c2cc(OC)cc(OC)c2)n1 | 0.1
CCCCCCOC(=O)NCC(O)c1ccccc1 (stereo unspecified) | 0.2
CC(C)C(OC(=O)c1ccco1)C(=O)NCc1ccco1 (stereo unspecified) | 0.3
CCOC(=O)c1c(C)n(Cc2ccccc2)c2ccc(OCC(O)CN3C(=O)CNC3=O)cc12 (stereo unspecified) | i
CCOc1ccc(S(=O)(=O)Nc2ccc(Cl)cn2)c(C)c1C | 0.2
COc1ccc(CCNS(=O)(=O)c2ccccc2)cc1OC | 1.1
Cn1c(=O)c2c(ncn2CC(=O)NCc2cccnc2)n(C)c1=O | 0.5
CCN1CCN(Cc2ccc(NC(=O)Nc3ccccc3)cc2)CC1 | i
CC(=O)c1cccc(NC(=O)N2CCCC2C(=O)NCCc2ccccc2)c1 (stereo unspecified) | i
O=C(N1CCCCC1)C12CC3CC(C1)CC(C(=O)N1CCCCC1)(C3)C2 | 0.1
CCCCC(=O)NC(Nc1nc(C2CC2)cs1)(C(=O)OCC)C(F)(F)F (stereo unspecified) | 0.3
O=C(NCC1CCCO1)c1ccc2c(=O)n(Cc3ccco3)c(SCC(=O)N3CCCC3)nc2c1 (stereo unspecified) | i
COC(=O)CSc1nc(C2CC2)cc(C(F)(F)F)c1C#N | i
COc1ccc(-c2nc(N)n[nH]2)cc1OC | 1.1
COC(=O)c1nc(NC(=O)c2ccc(Br)cc2)n[nH]1 | 0.1
COc1ccccc1N1CCN(C(=O)c2ccc(C(C)(C)C)cc2)CC1 | 2.0
O=C(c1ccc2c(c1)C(=O)N(CCCO)C2=O)c1ccc2c(c1)C(=O)N(CCCO)C2=O | i
O=c1c2ccccc2nc(CN2CCCCCC2)n1-c1ccc(F)cc1 | i
CCC(=O)NC(=S)Nc1ccc(NC(=O)COc2ccc(Cl)cc2Cl)cc1 | 4.4
CCCc1nc(SCC(=O)Nc2ccccc2)c2c(=O)n(C)c(=O)n(C)c2n1 | 1.5
CCOc1ccc(OCc2ccc(C(=O)NCC3CCCO3)o2)cc1 (stereo unspecified) | i
CCN(CC)C(=O)CSc1nnc(-c2cc3ccccc3cc2O)n1CC | 0.4
COC(=O)c1ccc(CSc2nc3ccccc3c(=O)n2-c2ccccc2)o1 | i
CCc1ccc(NC(=O)CN2CCc3ccccc3C2)cc1 | 1.2
COc1ccc(/C=C/C(=O)NNc2c(F)c(F)cc(F)c2F)cc1OC | i
COc1cccc(C(c2sc3nc(C)nn3c2O)N2CCc3ccccc3C2)c1 (stereo unspecified) | 0.3
O=c1n(-c2ccccc2)c(=O)n2n1CCCC2 | 0.6
COc1ccccc1-c1nc2n(n1)C(c1ccc(Cl)cc1)C(C(N)=O)=C(C)N2 (stereo unspecified) | i
CCCc1cc(N2CCCC(C(=O)Nc3c(OC)cccc3OC)C2)n2ncnc2n1 (stereo unspecified) | 1.2
CCCCC(=O)Nc1cccc(NC(=O)CC)c1 | 0.5
CCOC(=O)C1=C(C)OC(N)=C(C#N)C1C1CCCCC1 (stereo unspecified) | 1.1

(more compounds)
SMILES | H5N1 CPE
COc1ccc(CNCCc2ccccc2)cc1OCC(N)=O | i
N#Cc1ccccc1NC(=O)Nc1cccc(Cl)c1 | i
CC(=O)Nc1ccc2c(c1)C(=O)N(c1ccc(C)cc1)C2=O | 0.5
CC(NC(=O)Nc1cccc([N+](=O)[O-])c1)(C(F)(F)F)C(F)(F)F | 13
O=C(NCc1ccco1)C1CCN(c2ccc(N3CCOCC3)nn2)CC1 | i
CC1(C)CC(=O)C(C=NCCN2CCN(C(=O)CC3CCCC3)CC2)=C(O)C1 | 0.4
CN(CC(=O)NCc1cccs1)S(=O)(=O)c1cccc2cccnc12 | 4.5
COc1ccc(CCNc2oc(-c3ccc(C)cc3)nc2C#N)cc1OC | 2.1
Cc1csc(SC(C)C(=O)Nc2ccc(S(=O)(=O)N3CCCC3)cc2)n1 (stereo unspecified) | 2.8
CCn1c2c(c3ccc(OC)cc31)CCCC2=O | 0.3
CCCc1ccc(-c2cc(NC(=O)CSc3n[nH]c(N)n3)n(-c3ccccc3)n2)cc1 | i
O=C(OCc1nc2ccccc2s1)c1cccc(S(=O)(=O)N2CCOCC2)c1 | i
CCOC(=O)c1sc(NC(=O)c2ccc(S(=O)(=O)N3CCOCC3)cc2)cc1C | 2.7
CSc1nnc(-c2sc3cc(Cl)ccc3c2Cl)n1C | 0.2
CCOC(=O)CC12CN3CN(C1)CC(CC(=O)OCC)(C3)C2=O | i
COc1ccc2c(=O)c3c(=O)n(Cc4ccco4)c(-c4ccc(C)cc4)nc3oc2c1 | 0.8
CCCn1c(SCC(=O)N2CCc3ccccc32)nnc1-c1ccco1 | i
CS(=O)(=O)N(CC(=O)NCc1ccncc1)c1cc(Cl)cc(Cl)c1 | i
CCOC(=O)c1ccccc1NC(=O)CC1SC(=NC)N(C)C1=O (stereo unspecified) | i
CC(=O)Nc1ccc(S(=O)(=O)N(CC(=O)O)Cc2ccccc2)cc1 | 0.2
Cc1sc2ncnc(Nc3ccccc3)c2c1C | i
Cc1nn(-c2ccccc2)c(C)c1C(=O)OCC(=O)NC(=O)NC1CCCCC1 | i
CCCC(=O)Nc1nc2nc(-c3ccccc3)cc(-c3ccccc3)n2n1 | i
CCOC(=O)COc1ccc2c(c1)C(=O)CC(C)(C)O2 | i
CCOCCCNC(=O)CCNS(=O)(=O)c1ccc(C)cc1 | i
COc1ccc(NC(=O)CSc2nc3c(c(-c4cccs4)c2C#N)CN(C)CC3)cc1OC | 1.8
Cn1nc([N+](=O)[O-])nc1Oc1ccccc1N | i
CCn1c(=O)cc(OCC(=O)NCc2ccco2)c2ccccc21 | 2.5
CNC(=O)CSc1nnc(-c2cc(C)cc(C)c2)o1 | i
COc1ccc(OC)c(C(c2nnnn2Cc2ccccc2)N2CCN(C3CCCCC3)CC2)c1 (stereo unspecified) | i
CCc1nc(NCC2CCCO2)c2oc3ccccc3c2n1 (stereo unspecified) | i
Cc1cc(C)c(C#N)c(SCC(O)CS(=O)(=O)Cc2ccccc2)n1 (stereo unspecified) | 0.3
CCOc1cc(N2CCOCC2)c(OCC)cc1NC(=O)CC12CC3CC(CC(C3)C1)C2 | 0.1
Cc1[nH]c2ccccc2c1SCC(=O)N1CCOCC1 | 1.0
Cc1ccc(NC(=O)c2ccc(-n3cccn3)c([N+](=O)[O-])c2)cc1C | i
N#Cc1cc2c(N)c(C(=O)Nc3ccccc3)sc2nc1N | 0.1
Cc1cc(C(=O)CSc2n[nH]c(N)n2)c(C)n1-c1cc(F)ccc1F | 0.4
CCOC(=O)C1=C(Nc2ccc(Br)cc2)CC(C)(O)C(C(=O)OCC)C1c1ccccc1 (stereo unspecified) | i
O=C(O/N=C\c1ccc(N2CCOCC2)c([N+](=O)[O-])c1)c1ccc(F)cc1 | 0.3
c1ccc2c(-c3nc4ncccc4o3)cccc2c1 | 0.1
COC(=O)c1nc(C(=O)OC)c(C(=O)OC)nc1C(=O)OC | i
CC1(C)Oc2ccc3ccc(=O)oc3c2/C(=C/Nc2ccccn2)C1=O | i
CC1(C)OC(=O)C(=NNc2ccc(O)cc2)C(=O)O1 | i
O=C(Nc1ccc(CCC(=O)N2CCCC2)cc1)c1ncn[nH]1 | 1.0
Cc1cnc(NC(=O)CSc2nnc(-c3ccccc3)n2Cc2ccccc2)s1 | i
COCCNS(=O)(=O)c1cccn1-c1ncc(C(F)(F)F)cc1Cl | 1.1
COc1ccc(CCNS(=O)(=O)c2ccc3c(c2)OCCO3)cc1OC | 0.5
COc1ccc(CCN2C(=S)NC3CC2(C)Oc2ccc([N+](=O)[O-])cc23)cc1OC (stereo unspecified) | i
CC(C)CC(=O)c1c[nH]c(C(=O)NCc2cccs2)c1 | i
O=C(NC(NC1CCS(=O)(=O)C1)C(=O)c1cccs1)c1ccccc1 (stereo unspecified) | 1.1

(continued)
SMILES | H5N1 CPE
CCOC(=O)/C(C#N)=C(\N)C(C)C(=O)Nc1ccccn1 (stereo unspecified) | 0.3
CCOc1ccc(-n2c(=O)cc(N3CCN(c4ccc(F)cc4)CC3)[nH]c2=O)cc1 | i
c1coc(CNc2c3c(nc4ncnn24)CCC3)c1 | 12
COc1ccc(-n2c(O)cnc2Nc2nc(C)cc(C)n2)cc1OC | i
Cc1ccc(S(=O)(=O)N2CC3CCC2C3)cc1 (stereo unspecified) | 2.3
CC(=O)c1cccc(NC(=O)c2cc(-c3ccc(C)cc3)on2)c1 | i
Cc1ccc2oc(=O)c3cnn(CC(=O)NC4CCCCC4C)c3c2c1 (stereo unspecified) | 2.8
CN1CCN(C(=O)/C(=C/c2ccccc2)c2ccccc2)CC1 | 0.3
c1csc(-c2noc(COc3ccc4c(c3)CCCC4)n2)c1 | 1.4
Cc1ccc(CSc2nnc(-c3ccncc3)n2CC2CCCO2)cc1 (stereo unspecified) | 0.3

In the list so far, 9 contain a thiophene ring, fused or not:
SMILES | H5N1 CPE
CN(CC(=O)NCc1cccs1)S(=O)(=O)c1cccc2cccnc12 | 4.5
CCOC(=O)c1sc(NC(=O)c2ccc(S(=O)(=O)N3CCOCC3)cc2)cc1C | 2.7
CSc1nnc(-c2sc3cc(Cl)ccc3c2Cl)n1C | 0.2
Cc1sc2ncnc(Nc3ccccc3)c2c1C | i
COc1ccc(NC(=O)CSc2nc3c(c(-c4cccs4)c2C#N)CN(C)CC3)cc1OC | 1.8
N#Cc1cc2c(N)c(C(=O)Nc3ccccc3)sc2nc1N | 0.1
CC(C)CC(=O)c1c[nH]c(C(=O)NCc2cccs2)c1 | i
O=C(NC(NC1CCS(=O)(=O)C1)C(=O)c1cccs1)c1ccccc1 (stereo unspecified) | 1.1
c1csc(-c2noc(COc3ccc4c(c3)CCCC4)n2)c1 | 1.4

(list continues)
SMILES | H5N1 CPE
CCCOc1ccc(C(=O)NCCC(=O)NCCCC(=O)OCC)cc1 | 0.1
Cc1cc(C(=O)COC(=O)CCC(=O)c2ccc3c(c2)OCCO3)c(C)n1Cc1ccco1 | i
O=C(CSc1nc2ccccc2o1)NCc1ccc2c(c1)OCO2 | i
O=C1/C(=C/c2cccs2)CCc2ccccc21 | 0.3
O=C(CSc1nnc(Cc2cccs2)n1-c1ccccc1)NC1CCCCC1 | i
CCCN1CCN(CCCNC(=O)Cn2nc(-c3ccc(Cl)cc3)ccc2=O)CC1 | 0.2
O=S(=O)(c1ccc(Cl)cc1)N1CCN(c2ccc(N3CCOCC3)nn2)CC1 | i
O=C(CSc1nc(O)cc(=O)[nH]1)C1CC1 | 0.5
Cc1nn(-c2ccccc2)c(OC(=O)c2cccs2)c1S(=O)(=O)c1ccc([N+](=O)[O-])cc1 | i
CN(c1ccc(Cl)cc1)c1cc(=O)n(C)c2ccccc12 | 1.9
COc1ccc(N/C=C\C(=O)c2ccc3c(c2)OCO3)cc1 | i
CCOC(=O)c1cc(-c2ccc3c(c2)OCO3)nc2onc(C)c12 | 2.7
CNC(=S)N(Cc1ccc2c(c1)OCO2)C1CC(=O)N(c2ccc(F)cc2)C1=O (stereo unspecified) | 1.6
O=C(Nc1ccccc1C(=O)NC1CCCC1)NC1CCCC1 | i
O=C(c1cc(-c2ccccc2)nc2ccccc12)N1CCOCC1 | i
O=C(CCNC(=O)c1ccc(Br)o1)NCc1ccccn1 | i
Cc1ccc2nc(SCC(=O)O)nc(C)c2c1 | 1.1
CSc1oc(-c2ccco2)nc1S(=O)(=O)c1ccccc1 | 0.7
CC1(C)CC(=O)N(CC(=O)O)c2ccccc2S1(=O)=O | i
NC(=O)C1CCN(C(=O)CCc2nc3ccccc3c(=O)[nH]2)CC1 | 0.2
COC(=O)Nc1nn(Cc2ccccc2F)cc1Br | i
NC(=O)c1oc2ccccc2c1NC(=O)CN1CCCCC1 | 2.3

The list is partial; count on the stated rates, not on these rows.
